KCNQ2 enhance – KCNQ2 (rat) channel potentiation; O88943; CHO-K1 KCNQ2, FluxOR thallium flux fluorescence; active compounds read high; B-score at 10 µM; 310,000 compounds, 0.54% hits;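 active = fluorescence ratio B-score at least 3 SD of library B-scores, with initial fluorescence B-score within 3 SD, cut at about 5.3 in these data; same plate scores as AID 2156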;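 note: B-score of peak minus minimum over baseline fluorescence ratio after K+ and Tl+ stimulus; positive B-score means potentiation of KCNQ2 with more thallium influx and brighter signal; only the inactives scoring about 0 or higher are listed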
Target sequence (O88943 whole entry, looked up): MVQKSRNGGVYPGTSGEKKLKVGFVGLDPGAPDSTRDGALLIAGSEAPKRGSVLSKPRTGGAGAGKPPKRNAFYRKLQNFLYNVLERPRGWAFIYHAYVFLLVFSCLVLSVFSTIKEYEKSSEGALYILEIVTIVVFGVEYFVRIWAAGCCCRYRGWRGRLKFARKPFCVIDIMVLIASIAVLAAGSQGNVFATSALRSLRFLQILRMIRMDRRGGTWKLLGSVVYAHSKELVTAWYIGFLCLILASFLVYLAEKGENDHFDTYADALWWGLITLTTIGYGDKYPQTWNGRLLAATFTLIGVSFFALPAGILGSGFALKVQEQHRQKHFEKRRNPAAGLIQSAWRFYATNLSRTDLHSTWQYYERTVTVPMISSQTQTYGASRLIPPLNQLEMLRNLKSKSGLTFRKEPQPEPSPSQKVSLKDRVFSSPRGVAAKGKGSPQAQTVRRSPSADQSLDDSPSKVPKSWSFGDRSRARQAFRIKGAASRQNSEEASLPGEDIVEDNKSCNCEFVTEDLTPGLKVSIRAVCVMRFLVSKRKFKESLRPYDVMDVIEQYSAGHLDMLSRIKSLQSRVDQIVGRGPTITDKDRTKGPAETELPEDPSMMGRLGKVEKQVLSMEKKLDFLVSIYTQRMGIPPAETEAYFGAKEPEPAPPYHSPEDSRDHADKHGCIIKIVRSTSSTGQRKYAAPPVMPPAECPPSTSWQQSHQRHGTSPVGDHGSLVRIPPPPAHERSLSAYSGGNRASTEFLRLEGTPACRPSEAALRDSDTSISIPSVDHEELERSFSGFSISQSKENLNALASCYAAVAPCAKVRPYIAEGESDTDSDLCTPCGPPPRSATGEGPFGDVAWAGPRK
KCNQ2 enhance baseline – further read-out of KCNQ2 enhance, marked with its call; B-score; compound at 10 µM; measured here: initial fluorescence intensity artifact check;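 brightness before thallium and not channel activity; 0 = typical well and far values either way flag optical interference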
Active calls of the source: *. These rows are one share of the data (hit frequency here may not be typical).

KCNQ2 enhance,KCNQ2 enhance baseline,Compound
1.15,1.77,Nc1cc(N)nc(SCC(=O)Nc2ccccc2N2CCOCC2)n1
1.31,0.22,Cc1ccc(OCCC(=O)Nc2ccccc2C(=O)NC2CC2)cc1
0.2,2.63,O=C(O)CN(C1CCCCC1)S(=O)(=O)c1ccc(F)cc1
1.88,-2.29,CN1CCN(C(=O)C2CC(=O)N(c3ccc(Cl)cc3)C2)CC1 (centres undefined)
0.48,-1.13,Cc1ccc(NC(=O)[C@@]2(CC(=O)O)CC(/C=C/c3ccccc3)=NO2)c(C)c1
1.48,0.6,CCC(C(=O)NC(C)(C)C)N(C(=O)Cn1nnc(-c2ccccc2F)n1)c1cnc2ccccc2c1 (centres undefined)
0.4,-1.16,NC(=O)Cn1ccc(O)c(Cc2ccc(Cl)cc2Cl)c1=O
0.28,0.67,COCCCn1c(=N)c(C(=O)NCC2CCCO2)cc2c(=O)n3cccc(C)c3nc21 (centres undefined)
1.24,2.58,O=C(Nc1ccc(O)c2c(=O)cc(-c3ccccc3Cl)oc12)c1ccc(Cl)cc1Cl
0.02,2.89,O=C(NCc1ccccc1)C(c1ccncc1)N(C(=O)c1ccccn1)c1ccccc1 (centres undefined)
0.02,1.89,COc1ccc(C2CC(c3ccccc3)=NN2C(=S)Nc2ccccc2)cc1 (centres undefined)
1.11,-1.15,Cc1ccc(S(=O)(=O)N(C)C)cc1NC(=O)COC(=O)CSc1ccccc1
0.49,-0.13,CCCCN(C(=S)SC)C1CCS(=O)(=O)C1 (centres undefined)
0.44,-1.49,CC1=C(C)C(OCCBr)N(c2cc(O)c(Cl)cc2F)C1=O (centres undefined)
0.26,0.16,C=CCN(CC=C)C(=O)C[n+]1ccc(C(N)=O)cc1
0.1,-1.33,Cn1c(CCN2CCN(c3ccccn3)CC2)nc2cc(NS(=O)(=O)c3ccc(Cl)cc3)ccc21
1.24,1,CC1CCc2sc3c(c2C1)c(=O)n(CC(=O)O)c(=O)n3Cc1ccc(Cl)cc1 (centres undefined)
0.46,0.43,O=C(COc1ccc(Br)cc1)N1CCCCCC1
0.81,-1.29,CC(=O)Nc1ccc(S(=O)(=O)N2CCN(CC(=O)NC3CCCC3)CC2)cc1
0.45,0.01,CC1(C)CNC(=O)C=C(c2ccccc2)C1
0.08,1.22,COc1cc(C(=O)NNC2=CC(=O)CC(C)(C)C2)cc(OC)c1OC
0.8,0.34,Brc1ccc(C2=Nn3c(nnc3-c3cccnc3)SC2)s1
1.26,1,CN(C(=O)COC(=O)CNC(=O)CNC(=O)c1ccc(Cl)cc1Cl)c1ccccc1
1.54,-0.2,COc1cc(C2CC(=O)NC3=C2C(=O)CC(C)(C)C3)ccc1O (centres undefined)
0.88,0.35,O=P(O)(O)c1ccccc1OCCCCCOc1ccccc1P(=O)(O)O
1.04,-0.33,N#CCN1CCN(CC(=O)Nc2ccc(OCc3ccccc3)cc2)CC1
0.01,-0.72,Cc1cc2c(cc1C)N(Cc1ccccc1)C1=NCCCN12
0.28,0.65,O=C(Cc1cccc2ccccc12)Nc1ccccc1
1.99,0.54,O=C(NCc1ccccn1)C(=O)Nc1nc(-c2ccccc2)cs1
0.4,1.01,NC1=NC[C@H](Cc2ccccc2)N1CC1CCCCC1
0.97,0.41,Nn1c(SCC(=O)Nc2ccccc2)nnc(Cc2ccccc2)c1=O
2.58,-0.17,O=C(COC(=O)C1CCN(/C=C/C(=O)C(F)(F)F)CC1)Nc1cccc(F)c1
0.68,1.94,Cn1c(=O)c2ccccc2n(Cc2ccccc2F)c1=O
0.96,-1.02,CCN(CC(=O)Nc1c(F)cccc1F)C(=O)COc1ccc2c(C)cc(=O)oc2c1
0.07,-0.68,O=C(N/N=C/c1ccc(OCc2ccccc2)cc1)c1ccco1
11.3*,1.01*,COC(=O)CSc1nc2c(c(-c3ccco3)c1C#N)CCCC2
0.27,0.54,CC(c1ccccc1)n1c(CO)nc2ccccc21 (centres undefined)
1.22,0.76,CCc1ccc(NC(=O)CCS(=O)(=O)c2ccc(Cl)cc2)cc1
1.08,0.01,CCN1CCN(c2ncc(C(=O)Nc3cc(Cl)c(OC)cc3OC)c3ccccc23)CC1
0.17,-1.24,CC(CCc1ccccc1)NC(=O)C(=O)NCCc1ccccc1 (centres undefined)
0.21,1.08,O=C(Nc1ccc(F)cc1F)N1CCCC(c2nc(-c3ccc(F)cc3)no2)C1 (centres undefined)
1.99,-0.98,Cn1c(Cc2ccccc2)nnc1SCC(=O)Nc1ccccc1N1CCOCC1
0.11,0.31,CC1(c2ccccc2)NC(=O)N(CCN2C(=O)c3ccccc3C2=O)C1=O (centres undefined)
0.07,1.31,CCOC(=O)COn1c(=O)c(-c2ccc(F)cc2)[n+]([O-])c2ccccc21
0.67,0.33,OCCN(Cc1ccccc1)CC(O)COc1ccc(-c2ccccc2)cc1 (centres undefined)
0.52,2.07,O=C1COc2ccc(C(=O)COC(=O)/C=C/c3ccc(Br)o3)cc2N1
0.63,0.01,Cc1cccc(Nc2nc(OCC#N)nc(N(C)C)n2)c1
0.77,-0.08,OC1(Cc2cc(-c3ccccc3)no2)CCN(CCCc2ccccc2)CC1
0.31,-0.02,Cc1cccc(C)c1OCc1cc(C(=O)N2CCN3CCCC3C2)no1 (centres undefined)
0.37,-1.24,Cc1c(NC2=CC(=O)CC(C)(C)C2)ccc([N+](=O)[O-])c1C

Molecules from the list above that contain a furan ring, fused or not (three):
KCNQ2 enhance,KCNQ2 enhance baseline,Compound
0.07,-0.68,O=C(N/N=C/c1ccc(OCc2ccccc2)cc1)c1ccco1
11.3*,1.01*,COC(=O)CSc1nc2c(c(-c3ccco3)c1C#N)CCCC2
0.52,2.07,O=C1COc2ccc(C(=O)COC(=O)/C=C/c3ccc(Br)o3)cc2N1

Following part
KCNQ2 enhance,KCNQ2 enhance baseline,Compound
0.92,-0.73,Cc1nc2ccc(NC(=O)c3sccc3C)cc2s1
0.42,-0.88,CCS(=O)(=O)N1CCCC(C(=O)NC2CCCCC2)C1 (centres undefined)
1.69,0.25,O=C(COC(=O)c1ccc(F)c(S(=O)(=O)N2CCOCC2)c1)NCCc1ccccc1
1.83,-0.11,CCO[C@@H]1OC(C(=O)NCc2nc3ccccc3[nH]2)=C[C@H](C2CC2)[C@H]1CCCO
1.13,-0.38,CC(C)(C)c1ccc(C(=O)NC2CCN(Cc3ccccc3)CC2)cc1
1.43,-0.01,Cc1ccc(S(=O)(=O)NCCC(=O)NC(C)CCc2ccccc2)cc1 (centres undefined)
0.87,-0.13,O=C(Nc1ccc(Cl)cc1Cl)c1csc(-c2cccnc2)n1
0.52,-0.6,CC(C)CN(C(=O)c1ccco1)C1CCS(=O)(=O)C1 (centres undefined)
0.75,0.45,CC(c1ccco1)N(C(=O)c1ccccc1NS(=O)(=O)c1ccc(Cl)cc1)c1ccccn1 (centres undefined)
0.28,1.16,C=CCOc1c(Br)cc(C2NC(=O)NC(C)=C2C(C)=O)cc1OCC (centres undefined)

By substructure, the compounds so far containing two or more sulfur atoms (4)
KCNQ2 enhance,KCNQ2 enhance baseline,Compound
1.11,-1.15,Cc1ccc(S(=O)(=O)N(C)C)cc1NC(=O)COC(=O)CSc1ccccc1
0.49,-0.13,CCCCN(C(=S)SC)C1CCS(=O)(=O)C1 (centres undefined)
0.8,0.34,Brc1ccc(C2=Nn3c(nnc3-c3cccnc3)SC2)s1
0.92,-0.73,Cc1nc2ccc(NC(=O)c3sccc3C)cc2s1

Continuation.
KCNQ2 enhance,KCNQ2 enhance baseline,Compound
2.08,-0.7,O=C(c1ccncc1)N1CCN(C(=O)c2ccncc2)CC1
0.15,1.51,COCCN(C(=O)CCc1nnc(Cc2c[nH]c3ccccc23)o1)C(C)C
0.04,-0.4,COC(=O)NCC1(C)CC(NC(=O)OC)CC(C)(C)C1 (centres undefined)
0.56,-0.7,Cn1cccc1C(=O)OCC(=O)Nc1ccc2c(c1)OCO2
0.56,-2.11,COCc1cc(=O)n2[nH]c(C(C)(C)C)cc2n1
0.41,0.76,CCCCC(=O)Nc1ncc2c(n1)CC(C)(C)CC2=O
0.12,1.09,COc1cc(OC)cc(C(=O)N2CCN(Cc3ccc4c(c3)OCO4)CC2)c1
0.68,2.4,CCc1cc(=O)oc2cc(OCC(=O)N3CCC[C@H]3C(=O)O)ccc12
1.47,-1.33,Cc1cccc2nc(CSc3nc4ccc([N+](=O)[O-])cc4[nH]3)cn12
0.03,0.1,CC(OC(=O)CNC(=O)c1ccc2c(c1)OCO2)C(=O)NCCC1=CCCCC1 (centres undefined)

One compound at a time, as listed above. Values in the order: KCNQ2 enhance, KCNQ2 enhance baseline
Cc1cccc2nc(CSc3nc4ccc([N+](=O)[O-])cc4[nH]3)cn12 as listed: 1.47, -1.33
COC(=O)NCC1(C)CC(NC(=O)OC)CC(C)(C)C1 (centres undefined) as listed: 0.04, -0.4
COCc1cc(=O)n2[nH]c(C(C)(C)C)cc2n1 as listed: 0.56, -2.11
COCCN(C(=O)CCc1nnc(Cc2c[nH]c3ccccc23)o1)C(C)C as listed: 0.15, 1.51
CC(OC(=O)CNC(=O)c1ccc2c(c1)OCO2)C(=O)NCCC1=CCCCC1 (centres undefined) as listed: 0.03, 0.1

The list goes on:
KCNQ2 enhance,KCNQ2 enhance baseline,Compound
0.92,-0.78,COc1ccc(/C=C(/NC(=O)c2ccc(C)cc2)C(=O)NCC2CCCO2)cc1 (centres undefined)
0.24,0.8,COC(=O)Cc1[nH]nc2c1C1(CCSCC1)C(C#N)=C(N)O2
1.83,-1.43,CC(C(=O)NCC1CCCO1)n1cccc1C(=O)c1ccccc1 (centres undefined)
0.07,1.21,CC(C)Cc1ccc(C(C)C(=O)N2CCOCC2)cc1 (centres undefined)
0.23,1.34,Cc1ccc(/C=C/S(=O)(=O)NCC(=O)OCC(=O)Nc2ccc(C(N)=O)cc2)cc1
0.04,1.7,Cc1nc(Cl)sc1C(=O)Nc1ccc(Cl)cc1
1.35,0.65,CCCCN1C(=O)/C(=C2/C=CC=CN2C)SC1=S
0.02,1.55,Cc1cccc2nc(CNC(=O)C3CCC(=O)N(Cc4ccccc4F)C3)cn12 (centres undefined)
0.6,-1.15,C/C=C/C(=O)Nc1ccc(N2CCN(c3ccc(C(F)(F)F)cn3)CC2)nc1
0.02,-1.38,COC(=O)N1C(=O)[C@](Cc2ccccc2)(c2ccccc2)N1C(=O)OC
0.39,-0.87,O=C(COC(=O)c1nc(Cl)ccc1Cl)NNC(=O)c1ccccc1
5.2,0.38,CCOc1ccccc1C(=O)OCC(=O)NCC1CCCCC1
0.08,-0.51,O=C(Nc1ccc(N2CCN(C(=O)c3cccs3)CC2)cc1)c1cccnc1
1.59,-0.01,CC(OC(=O)CCc1nc2ccccc2c(=O)[nH]1)C(=O)Nc1ncc(Cl)cc1Cl (centres undefined)
0.31,-0.11,COc1ccc(-c2noc(CCC(=O)Nc3cc(OC)ccc3OC)n2)cc1
2.68,-0.66,CCOc1ccc(NC(=O)CN(C)C(=O)CSCc2c(C)noc2C)cc1OCC
0.05,0.01,CC1CCN(C(=O)COC(=O)c2cc([N+](=O)[O-])ccc2N2CCOCC2)CC1
0.55,-1,CCc1cc(C(c2ccccn2)N2CCN(C)CC2)c(NC(=O)c2ccccc2)s1 (centres undefined)
0.54,2.08,OCC[C@@H]1C[C@H](O)[C@@H](O)[C@@]2(CCc3ccccc3CO2)O1
0.05,-0.8,COc1ccccc1NC(=O)N1CCN(c2ccc3nnc(-c4ccc(F)cc4)n3n2)CC1

Some of the entries so far, field by field.
compound: CC(OC(=O)CNC(=O)c1ccc2c(c1)OCO2)C(=O)NCCC1=CCCCC1 (centres undefined)
  KCNQ2 enhance: 0.03	KCNQ2 enhance baseline: 0.1

compound: COc1ccc(/C=C(/NC(=O)c2ccc(C)cc2)C(=O)NCC2CCCO2)cc1 (centres undefined)
  KCNQ2 enhance: 0.92	KCNQ2 enhance baseline: -0.78

compound: COC(=O)Cc1[nH]nc2c1C1(CCSCC1)C(C#N)=C(N)O2
  KCNQ2 enhance: 0.24	KCNQ2 enhance baseline: 0.8

compound: CC(C(=O)NCC1CCCO1)n1cccc1C(=O)c1ccccc1 (centres undefined)
  KCNQ2 enhance: 1.83	KCNQ2 enhance baseline: -1.43

Remaining list, next part
KCNQ2 enhance,KCNQ2 enhance baseline,Compound
0.19,2.6,CC(C)OC(=O)c1ccc(NC(=O)c2ccco2)cc1
0.33,2.31,CN(C)/C=C(\C=O)c1onc(-c2ccccc2Cl)c1C#N
0.08,0.67,CN1CCN(CC(=O)Nc2nnc(-c3cccs3)s2)CC1
0.03,-0.95,CNC(=O)Nc1ccccc1C(=O)NCc1ccccc1
1,0.18,S=C(NCCN1CCOCC1)NC1CCCC1
0.5,1.37,c1ccc(-c2nn3c(C4CCCCC4)nnc3s2)nc1
0.03,2.35,COc1ccc(NC(=O)Cn2cc(C(=O)C3CC3)c3ccccc32)cc1
